GIV-Gai inh = GIV-Galpha-i interaction inhibition; P08753; Galpha-i3/FITC-GIV peptide fluorescence polarization, 90 min; hits give low values; scaled: aluminum fluoride 0%, vehicle 100%; percent of control (FP), % (no concentration beside the values); 0.42% of 210,000 active;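 active = replicate mean at 85% of control or lower, very high polarization wells dropped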;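 note: wells of about 15 µL received 100 nL stock; the first replicate is given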
Target sequence (P08753 whole entry, looked up): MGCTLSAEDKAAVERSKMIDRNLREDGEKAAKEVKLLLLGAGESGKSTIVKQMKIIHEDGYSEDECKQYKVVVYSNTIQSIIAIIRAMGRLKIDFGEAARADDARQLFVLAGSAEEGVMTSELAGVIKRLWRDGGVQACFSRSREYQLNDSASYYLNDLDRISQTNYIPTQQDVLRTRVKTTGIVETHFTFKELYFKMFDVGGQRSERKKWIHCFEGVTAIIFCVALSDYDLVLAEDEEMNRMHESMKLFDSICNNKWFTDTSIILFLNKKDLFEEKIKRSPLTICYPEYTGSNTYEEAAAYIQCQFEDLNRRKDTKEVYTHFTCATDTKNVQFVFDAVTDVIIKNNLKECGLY
Active calls of the source: *. The list is partial. The share of hits here may be higher or lower than overall.

SMILES | GIV-Gai inh
CCOC(=O)C1=NN(c2ccccc2)C2(S1)c1ccccc1C(c1ccc(C(C)(C)C)cc1)=NN2c1ccccc1 (configuration not stated) | 110
CCOC(=O)N1CCN(Cc2nc(-c3ccc(N4CCCC4)nc3)no2)CC1 | 96
O=c1c(S(=O)(=O)N2CCCC2)cccn1Cc1ccc(F)cc1Cl | 107
COC(=O)c1ccc2c(=O)n(-c3cc(C)cc(C)c3)c(N3CCN(Cc4ccccc4)CC3)nc2c1 | 102
O=C(COC(=O)C(CCCCN1C(=O)C2C3C=CC(C3)C2C1=O)N1C(=O)C2C3C=CC(C3)C2C1=O)c1ccc(Br)cc1 (configuration not stated) | 106
O=C(CSc1nc2ccccc2nc1Cc1ccc(Cl)cc1)NCC1CCCO1 (configuration not stated) | 106
O=S(=O)(c1cc(-c2ccno2)cs1)N(Cc1cccs1)C1CCCCC1 | 105
Cc1cccc(Nc2nc3nonc3nc2N2CCC(Cc3ccccc3)CC2)c1C | 105
COc1ccc(OCC(=O)Nc2cccc(OCc3cc(=O)n4ccccc4n3)c2)cc1 | 103
O=C(COC(=O)c1ccc(N2C(=O)C3CC=CCC3C2=O)cc1)c1ccc(Cl)c([N+](=O)[O-])c1 (configuration not stated) | 107
O=C(NC1CCCC1)c1cccc(-n2cnnc2)n1 | 98
Cc1sc2ncn(CC(=O)NCC(=O)N3CCN(c4ccccc4F)CC3)c(=O)c2c1C | 105
Cc1cc(=O)oc2c3c(ccc12)O/C(=C\c1ccccc1Cl)C3=O | 104
COc1ccc(/C=c2/sc3nc(-c4ccc(Cl)cc4)nn3c2=O)cc1 | 107
COc1ccc(S(=O)(=O)Nc2cc(C(=O)Nc3ccc(F)c(F)c3)ccc2N2CC3CC(C2)c2cccc(=O)n2C3)cc1 (configuration not stated) | 114
O=C(NC1CC1)c1ccc2c(c1)CCN2C(=O)C1CCCC1 | 102
CCOC(=O)N1CCC(NC(=O)CCC2CCN(c3cc(NC4CC4)ncn3)CC2)CC1 | 101
O=C(Cc1ccc([N+](=O)[O-])cc1)N1CCCc2ccccc21 | 114
CCOC(=O)c1c(NC(=O)C(C)Sc2nnc(CNC(=O)c3cccc(F)c3)n2Cc2ccccc2)sc2c1CCC2 (configuration not stated) | 108
O=C(NC1CCCC1)C1CCCN(S(=O)(=O)c2cc(-c3noc(C4CCC4)n3)cs2)C1 (configuration not stated) | 97
O=C(c1ccc(-c2nc(-c3ccccc3)no2)cc1)N1CCN(c2ccc(Cl)cc2)CC1 | 98
Brc1ccc(-c2nnc3n2CCCCC3)cc1 | 105
CCOC(=O)C1=C(N)n2c(s/c(=C\c3cccc([N+](=O)[O-])c3)c2=O)=C(C(=O)OCC)C1c1cccc([N+](=O)[O-])c1 (configuration not stated) | 111
O=C(Cn1c(=O)c(CCC(=O)NC2CCCC2)nc2ccccc21)Nc1ccc(Cl)cc1F | 98
CCN(C(=O)Cc1c[nH]c2ccccc12)C1(C(=O)Nc2cccc(C)c2)CCCCC1 | 121
(listing goes on)
SMILES | GIV-Gai inh
COc1ccc(-c2nn(-c3ccccc3)cc2/C=C2/NC(=S)N(c3ccccc3)C2=O)cc1OC | 104
CC(=O)NCCc1csc(C2CCCN(C(C)=O)C2)n1 (configuration not stated) | 100
COc1ccc(NC(=O)c2ccc(-n3cnc4c(sc5nc(C)cc(C)c54)c3=O)cc2)c(OC)c1 | 100
O=c1c2cc3c(cc2nc(SCc2nc(-c4ccc(F)cc4)no2)n1-c1ccc(F)cc1)OCO3 | 101
O=C1/C(=C/c2ccc(-c3ccc(Br)cc3)o2)C=C(c2ccccc2)N1c1ccc(F)cc1 | 119
CCN(CC)S(=O)(=O)N1CCC(C(=O)NCCN2CCOCC2)CC1 | 103
CCCCN(CC)c1ccc2nnc(CCc3nc(-c4ccc5c(c4)OCO5)no3)n2n1 | 104
CC(=O)C1=NN(c2ccc(C)cc2)C(c2c[nH]c3ccccc23)N1c1ccc(F)cc1 (configuration not stated) | 108
Cn1c(CC(=O)Nc2ccc(F)cc2)c(Sc2ccccc2)c2ccccc21 | 108
O=C1COc2ccc(S(=O)(=O)NCCC3=CCCCC3)cc2N1Cc1noc(C2CCC2)n1 | 97
Cc1cccc(C2(c3cccc(C)c3)CC2C(=O)Nc2ccc(C)cc2C)c1 (configuration not stated) | 102
COc1ccc2nc(-n3nc(C)c4c3NC(=O)CC4c3ccc(OC4CCCC4)cc3)sc2c1 (configuration not stated) | 97
Nc1nonc1-n1nnc(C(=O)O)c1CN1CCOCC1 | 101
COc1ccc(C)cc1NC(=O)N1CCOc2ccc(COCc3ccc(F)cc3)cc2C1 | 100
O=C(Nc1cccc(O)c1)c1nn2c(C(F)(F)F)cc(-c3ccco3)nc2c1Br | 101
O=C(Nc1ccc2c(c1)OCCO2)c1nc(N2CCOCC2)c2oc3ccccc3c2n1 | 107
O=C(NCCC1=CCCCC1)c1nc(Cn2c(=O)oc3ccccc32)no1 | 103
CCn1c(SCc2nc(-c3ccccc3)oc2C)nc2c(=O)[nH]cnc21 | 105
O=C(Cn1cnc2c(sc3ncccc32)c1=O)Nc1cc(F)ccc1F | 98
COCCNC(=O)c1cc(S(=O)(=O)N2CCOCC2)ccc1Sc1ccc(Br)cc1 | 101
CCCn1cnc2sc(C(=O)N3CCN(CC)CC3)c(C)c2c1=O | 112
O=C(O)CN1C(=O)/C(=C2\SC(N3CCOCC3)=NC2=O)c2cc(Br)ccc21 | 104
O=C1/C(=C/c2ccc(-c3cc(Cl)ccc3Cl)o2)C=C(c2ccccc2)N1c1cccc(I)c1 | 126
COC(=O)c1ccc2c(=O)n(CCc3ccc(S(N)(=O)=O)cc3)c(SCc3cccc(Cl)c3)nc2c1 | 118
Cc1c(C(=O)Nc2ccc(F)cc2Cl)sc2ncn(CC(=O)Nc3cccc(C(F)(F)F)c3)c(=O)c12 | 101
New compounds follow:
SMILES | GIV-Gai inh
O=C(c1nnc(-c2ccc(S(=O)(=O)N3CCCC3)cc2)o1)N1CCCC1 | 102
COc1ccccc1N1CCN(c2ncc(NC(=O)c3ccccc3F)cc2C(=O)O)CC1 | 110
C=CCSC1=NC2(CC(c3ccccc3)c3ccc(O)c(O)c3O2)CC(C)(C)N1 (configuration not stated) | 106
CCn1nccc1C(=O)N1CCCC1c1cc(C(C)C)no1 (configuration not stated) | 98
C=CCSc1nnc2n(-c3ccc(C)cc3)c(=O)c3c4c(sc3n12)CCC4 | 110
CCOC(=O)C1=C(C)NC2=C(C(=O)C(C(=O)OCC)C(c3ccc(OC)cc3)C2)C1c1ccccc1OC (configuration not stated) | 104
CCc1ccc(-n2c(=S)sc3c(=O)[nH]c(SCC(=O)O)nc32)cc1 | 101
CCOc1ccccc1N=c1ssc2c1-c1cc(C)c(C)cc1NC2(C)C | 107
CCC(C)NC(=O)CC1CCN(C(=O)c2cc3ccccc3[nH]2)CC1 (configuration not stated) | 101
CCCCCCNC(=O)Cc1cccc2ccccc12 | 105
COC(=O)C1=C(C(=O)OC)SC(=C2C(=S)C(C)(C)N(C(=O)c3ccccc3Cl)c3ccc(OC)cc32)S1 | 110
CCC(C)NC(=O)c1ccc(Cn2nc(C)c(S(=O)(=O)N(C)C)c2C)cc1 (configuration not stated) | 106
Cc1nn(CC(=O)N2CCCC2)c(C)c1S(=O)(=O)N1CCCC(C(=O)Nc2ccccc2)C1 (configuration not stated) | 103
S=c1n(CN2CCC3(CC2)OCCO3)nc(-c2ccccc2Cl)n1-c1ccccc1 | 113
CCn1c(CNS(=O)(=O)c2cccc3nsnc23)nc2cccnc21 | 97
CCOc1cc(CN2CCCC2c2cc(CC)no2)ccc1O (configuration not stated) | 98
COC(=O)c1c(NC(=O)Cn2nc([N+](=O)[O-])c(Br)c2C)sc2c1CCCC2 | 118
CC(=O)N/C(=C\c1c[nH]c2ccccc12)C(=O)NC(Cc1c[nH]c2ccccc12)C(=O)O (configuration not stated) | 109
CCn1cnc2sc(C(=O)N3CCC4(CC3)OCCO4)c(C)c2c1=O | 103
O=S(=O)(NCC1CCCO1)c1ccc(Cl)c(-c2nnc(-c3ccccc3)o2)c1 (configuration not stated) | 100
CCOP(=O)(OCC)C(Nc1ccc([N+](=O)[O-])cc1)c1ccc(Cl)cc1 (configuration not stated) | 105
CCc1ccc(-n2c(-c3ccco3)n[nH]c2=S)cc1 | 105
Cc1nc(-c2ccc(C(=O)NCc3cccnc3)cc2)cs1 | 101
O=C(c1ccc2c(=O)n(Cc3ccccc3)c(SCc3cccc([N+](=O)[O-])c3)nc2c1)N1CCOCC1 | 110
COc1cccc(NC(=O)c2ccc(-n3nc(N4CCCC4)ccc3=O)cc2)c1 | 106
Following part:
SMILES | GIV-Gai inh
COCCCNC(=O)CSc1nc2ccccc2nc1Cc1ccccc1 | 102
Cc1cc(C)c(S(=O)(=O)Nc2cc3c4c(oc3c3ccccc23)CC(C)(C)CC4=O)c(C)c1 | 107
Cc1ccc(C2=NNC3(S2)C(=O)Nc2ccc(C)cc23)cc1 (configuration not stated) | 125
COc1ccc(C(=O)Nn2c(SCC(=O)N3CCC(C)CC3)nc3ccccc3c2=O)cc1 | 102
CCCc1[nH]n(-c2ccc(F)cc2)c(=O)c1C=NCc1ccccc1Cl | 108
c1ccc(Oc2nc(NCCN3CCOCC3)nc(Oc3ccccc3)n2)cc1 | 117
CC(=O)Nc1ccc2nc(N3CCC(C(=O)NCCN4CCC(C)CC4)CC3)cc(C)c2c1 | 101
O=C(Nc1ccccc1)c1nnc(C2CCCN(C(=O)NCC3CCCO3)C2)s1 (configuration not stated) | 110
Cc1cccc(-c2nc3ccc(C(=O)NCc4cccnc4)cc3nc2-c2cccc(C)c2)c1 | 107
CCCCC(=O)NC(Nc1cc(C)ccn1)(C(=O)OCC)C(F)(F)F (configuration not stated) | 110
Cc1ccc(C(=O)NC2CCCc3ccccc32)cc1NC(=O)c1nsc2ccccc12 (configuration not stated) | 103
CN1CCN(C(=O)C2CCN(S(=O)(=O)c3cc(-c4noc(C5CC5)n4)cs3)CC2)CC1 | 109
Cc1ccccc1-c1cc2n(C)c(C)c(CCC(=O)Nc3cccc(Br)c3)c(=O)n2n1 | 106
CN(C)c1ccc(-c2nc(-c3ccc(-c4csc(C5CC5)n4)cc3)no2)cc1 | 104
CCc1ccccc1NC(=O)NCc1nnc(C(=O)Nc2ccccc2)s1 | 108
CC(C)NC(=O)c1ccc(Oc2ccc(NS(=O)(=O)c3ccc(Cl)cc3)cc2)nc1 | 100
CCN1CCN(C(=O)C2(c3cccc(Cl)c3)CC2)CC1 | 102
COCCNC(=O)c1ccc2c(=O)n(Cc3ccc4c(c3)OCO4)c(SCC(=O)Nc3ccc(C)c(C)c3)nc2c1 | 115
O=C(NC1CCCCC1)c1nc(-c2ccc(S(=O)(=O)N3CCCCC3)cc2)no1 | 104
Cc1cc(-c2csc(S(=O)(=O)NCC3CCN(Cc4ccc(Cl)cc4)CC3)c2)on1 | 103
Cc1ccc(-c2cc(N3CCN(C(=O)NC4CCCCC4)CC3)ncn2)cc1 | 99
Cc1noc(C)c1C1CCCN1C(=O)c1cc(C2CC2)on1 (configuration not stated) | 106
Cc1sc(-c2nc(C(C)C)cs2)cc1S(=O)(=O)N1CCCCC1 | 104
Cc1cc(NC(=O)Nc2ccccc2)c2[nH]c(C(=O)NCCN(C)C)c(-c3ccccc3)c2c1 | 97
O=C(NCc1ccccc1)c1ccc2c(=O)n(Cc3cccc(Br)c3)c(=S)[nH]c2c1 | 108

Some of the entries so far, as tab-separated lines:
Molecule	GIV-Gai inh
Cc1ccccc1-c1cc2n(C)c(C)c(CCC(=O)Nc3cccc(Br)c3)c(=O)n2n1	106
CN(C)c1ccc(-c2nc(-c3ccc(-c4csc(C5CC5)n4)cc3)no2)cc1	104
CCc1ccccc1NC(=O)NCc1nnc(C(=O)Nc2ccccc2)s1	108
CC(C)NC(=O)c1ccc(Oc2ccc(NS(=O)(=O)c3ccc(Cl)cc3)cc2)nc1	100
CCN1CCN(C(=O)C2(c3cccc(Cl)c3)CC2)CC1	102
COCCNC(=O)c1ccc2c(=O)n(Cc3ccc4c(c3)OCO4)c(SCC(=O)Nc3ccc(C)c(C)c3)nc2c1	115
O=C(NC1CCCCC1)c1nc(-c2ccc(S(=O)(=O)N3CCCCC3)cc2)no1	104
Cc1cc(-c2csc(S(=O)(=O)NCC3CCN(Cc4ccc(Cl)cc4)CC3)c2)on1	103
Cc1ccc(-c2cc(N3CCN(C(=O)NC4CCCCC4)CC3)ncn2)cc1	99
Cc1noc(C)c1C1CCCN1C(=O)c1cc(C2CC2)on1 (configuration not stated)	106
Cc1sc(-c2nc(C(C)C)cs2)cc1S(=O)(=O)N1CCCCC1	104
Cc1cc(NC(=O)Nc2ccccc2)c2[nH]c(C(=O)NCCN(C)C)c(-c3ccccc3)c2c1	97
O=C(NCc1ccccc1)c1ccc2c(=O)n(Cc3cccc(Br)c3)c(=S)[nH]c2c1	108

Carrying on.
SMILES | GIV-Gai inh
O=S(=O)(NCCc1n[nH]c(Cc2cccc(F)c2)n1)c1cc(F)cc(F)c1 | 108
CC(C)C1=NCCc2cc(O)c(O)cc21 | 106
COC(=O)C1=C(C(=O)OC)SC(=C2C(=S)C(C)(C)N(C(=O)c3ccccc3)c3cc(OC)ccc32)S1 | 109
CC1CCCCN1C(=O)CN(C)S(=O)(=O)c1cc2c(cc1Cl)NC(=O)CO2 (configuration not stated) | 102
Cn1c(=O)c2nc(SCCC(=O)Nc3ccc(Br)cc3F)n(C)c2n(C)c1=O | 101
COc1cccc(NC(=O)CCc2c(-c3ccc(F)cc3)nc3ccccn23)c1 | 98
Cc1csc(-c2cc(S(=O)(=O)N3CCc4ccccc4C3)c(C)s2)n1 | 103
COc1ccc(NC(=O)Nc2nnc(SCC(=O)Nc3ccc(OC)c(OC)c3)s2)cc1 | 99
CCCCNC(=O)CCc1c(C)n(C)c2cc(-c3ccccc3C)nn2c1=O | 102
CCC(C)NC(=O)c1cc(NS(=O)(=O)c2ccc(Br)cc2)ccc1N1CCNCC1 (configuration not stated) | 99
COc1ccc(C2CC(=O)Nc3ccc4ccccc4c32)c(OC)c1OC (configuration not stated) | 117

Assay outcomes as filed in PubChem BioAssay.
